Cruzain inh noDet: blocks cruzain activity in detergent-free assay. Potency, µM, without a hit: max response, negative = inhibition, hits mostly inhibitors. purified cruzain, Z-FR-AMC fluorescence, no detergent. AID 1476. 200,000 tested, 2.3% active;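 also: plate controls were enzyme without inhibitor for no effect and buffer without enzyme for full effect; nearly all actives have a fitted effect of over 40% in size; top concentration of the series not given in the record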
Target sequence (P25779 123-467 limits assumed): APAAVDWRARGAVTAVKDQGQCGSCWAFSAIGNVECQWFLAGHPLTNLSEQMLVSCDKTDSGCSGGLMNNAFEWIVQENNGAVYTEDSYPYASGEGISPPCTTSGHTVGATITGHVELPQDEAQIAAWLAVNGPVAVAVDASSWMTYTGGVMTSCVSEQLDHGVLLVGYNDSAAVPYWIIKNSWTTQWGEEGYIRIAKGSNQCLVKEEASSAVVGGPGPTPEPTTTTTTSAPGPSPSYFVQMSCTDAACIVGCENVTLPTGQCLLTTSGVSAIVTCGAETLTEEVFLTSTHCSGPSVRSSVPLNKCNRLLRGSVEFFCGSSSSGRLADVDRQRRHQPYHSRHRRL
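Purified cruzain at 1.5 nM, pre-incubated 15 min with compound at room temperature in 100 mM sodium acetate pH 5.5, 5 mM DTT, 0.00005% Triton X-100. Reaction started with 2 uM Z-FR-AMC; AMC fluorescence increase over 60 s gives rate.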
Lassa entry inh: blocks Lassa virus binding to or entry into cells; 300,000 tested, 1.2% active; Lassa virus pseudotype entry inhibition, cell reporter; control for the full effect not named in the record; Potency, µM (series often up to 37.9 µM), inactives show at the highest dose activity change, negative = inhibition, most hits filed as inhibitors; active means well fitted inhibition curve with a large enough effect; inconclusive means small, poorly fitted or top-dose-only effect, or effect the other way; inactive means flat fitted curve, though single readings scatter; tested in HEK293 cells; also: % is scaled to controls: 0 for no effect and ±100 for the full control effect; nearly all actives have a fitted effect of over 50% in size; luciferase read-out
Cruzain Triton: inhibitors of Trypanosoma cruzi cruzain with detergent; purified cruzain, Z-FR-AMC fluorescence, 0.01% Triton; 200,000 tested, 0.43% active; Potency, µM, for inactives: max response, negative = inhibition, usual class: inhibitors; P25779;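 also: plate controls were neutral wells for no effect and buffer without enzyme for full effect; nearly all actives have a fitted effect of over 40% in size; top concentration of the series not given in the record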
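15 min RT preincubation of 1.5 nM cruzain with compound, then 2 uM Z-FR-AMC added; kinetic AMC fluorescence, 60 s delta. Triton X-100 0.01%, pH 5.5.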
RE007 growth inh: less growth of the S. pombe RE007 Vpr strain | S. pombe RE007 Vpr strain, BacTiter-Glo ATP luminescence, 24 h; control for the full effect not named in the record | Potency, µM (top dose mostly 92.2 µM), for the others: at the top dose activity change, negative = less growth | 360,000 tested, 0.21% active; active = well fitted falling curve with a large enough effect; inconclusive = small, poorly fitted or top-dose-only effect; inactive = no such curve, though single readings can be large or run the other way;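 also: % is scaled to controls: 0 for no effect and ±100 for the full control effect; nearly all actives have a fitted effect of over 50% in size; the assay follows cell death caused by Vpr and the record does not say whether a fall means rescue or toxicity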
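Fission yeast RE007 carrying one integrated HIV-1 vpr copy, seeded at OD 0.01 in PMG+AL medium with 23 nL pinned compound. Grown 24 h at 30 degrees; viability read by BacTiter-Glo luminescence after 5 min.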
2A StopGo: lowers the luciferase signal of an FMDV 2A StopGo reporter; 410,000 tested, 1.2% active; Potency, µM (top dose mostly 57.9 µM), without a hit: top-dose signal change, negative = less light; human cells with a luciferase reporter of 2A StopGo recoding; control for the full effect not named in the record; AID 1159524; active = well fitted falling curve with a large enough effect; inconclusive = small, poorly fitted or top-dose-only effect; inactive = no such curve, though single readings can be large or run the other way; tested in HEK293T cells; also: % is scaled to controls: 0 for no effect and ±100 for the full control effect; nearly all actives have a fitted effect of over 45% in size; luciferase light after 4 h
SARS PLP yeast: SARS-CoV PLP inhibition in yeast; S. cerevisiae expressing SARS-CoV PLpro, growth rescue; control for the full effect not named in the record; AID 485353; 330,000 tested, 0.19% active; Potency, µM (highest dose often 32.9 µM), for the others: at the top dose activity, positive = growth rescue; active means well fitted rising curve with a large enough effect; inconclusive means small, poorly fitted or top-dose-only effect; inactive means no such curve, though single readings can be large or run the other way; also: 0% is about no effect; nearly all actives have a fitted effect of over 55% in size; growth read by luminescence after 48 h
NS1 inh: blocks influenza NS1 protein function | S. cerevisiae slowed by influenza A NS1, growth recovery by OD600 | Potency, µM (doses to about 46.1 µM), for the others: at the highest dose activity, positive = more growth | 270,000 tested, 0.4% active | AID 2326; active means well fitted rising curve with a large enough effect; inconclusive means small, poorly fitted or top-dose-only effect; inactive means no such curve, though single readings can be large or run the other way; also: nearly all actives have a fitted effect of over 50% in size
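Recovery from NS1-induced slow growth read by OD600 in budding yeast switched to galactose assay medium (pH 6.0, -URA) at 1:100 dilution. Compound 23 nl per well; the matching strain lacking NS1 serves as control.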
Marburg entry inh: Marburg virus entry inhibition; Marburg virus pseudotyped entry inhibition, cell reporter; control for the full effect not named in the record; about a third of the inactives were read at about 46 µM; 300,000 tested, 1.8% active; Potency, µM (titrated, usually from 37.8 µM), for the others: at the highest dose activity change, negative = inhibition, usual class: inhibitors; active = well fitted inhibition curve with a large enough effect; inconclusive = small, poorly fitted or top-dose-only effect, or effect the other way; inactive = flat fitted curve, though single readings scatter; tested in HEK293 cells; about a fifth of its hits are not listed in these tables; also: % is scaled to controls: 0 for no effect and ±100 for the full control effect; luciferase read-out
* = called active by the depositor; ? = inconclusive; / = no result given; & = joins results of further samples; [ ] = another dose, or the depositor's remark. Unless noted, calls follow the shape of the dose curve; as a rule, active = well fitted curve in the direction sought with a large enough effect; inconclusive = small, poorly fitted or top-dose-only effect, or another doubt; inactive = no such curve, though single readings can be large; an effect the other way counts as inactive or inconclusive. Potency is read from the fitted curve at half-maximal effect. An unsorted share of the library; any-hit rate near 4.8%.

Molecule | NS1 inh | Cruzain Triton | 2A StopGo | Cruzain inh noDet | Lassa entry inh | Marburg entry inh | RE007 growth inh | SARS PLP yeast
Cc1ccccc1NC(=O)c1cc2c([nH]c1=O)CC(C)(C)CC2=O | / | 0.8% | 31%[activator] | 3% | 11%[46.1 µM] | ? | / | /
Cc1ccccc1CC(=O)Nc1ccc2c(c1)CCC2 | -8% | / | 26% | / | ? | ? | 6% | -1%
Cc1cccc(S(=O)(=O)Nc2nc3ccccc3nc2OC(C)C)c1 | 0% | / | 30%[activator] | / | 20% | -19% | ? | 6%
CCOC(=O)c1ccc(N2C(=O)CC(SCC(=O)Nc3ccc(S(N)(=O)=O)cc3)C2=O)cc1 (stereo not given) | -7% | / | ? | / | / | / | ? | -17%
Cc1ccc(S(=O)(=O)NC(C)(C)CSc2nncn2N)cc1 | 12% | 0.9% | 0% | 0% | 1% | -5%[46.1 µM] | 3% | 2%
CC(C)C(NC(=O)C12CC3CC(CC(C3)C1)C2)C(=O)N/N=C/C1=C(N2CCOCC2)C(=C\c2cccc([N+](=O)[O-])c2)/CC1 (stereo not given) | -5% | -4.0% | -3% | -12% | 8% | ? | -3% | 3%
Cc1cc(OCC(=O)NCCCn2ccnc2)c2c(C)c(C)c(=O)oc2c1 | -3% | / | 4% | / | / | / | 3% | 0%
CC(=O)c1cccc(NCC(=O)c2ccc(C)c([N+](=O)[O-])c2)c1 | -2% | / | 12% | / | 16%[46.1 µM] | ? | -1% | 0%
COc1cccc(C(=O)CSc2nc3ccccc3n2CC(=O)N2CCOCC2)c1 | 2% | -0.8% | -3% | 0% | -18%[14.3 µM] | 1% | -25% | 2%
O=C(Cc1ccc(S(=O)(=O)N2CCOCC2)s1)NCC(=O)Nc1ccccc1Br | / | / | -3% | / | -19% | 1% | 10% | 4%
O=S1(=O)CCC(NS(=O)(=O)c2ccc3ccccc3c2)C1 (stereo not given) | 6% | / | -5% | / | 11%[46.1 µM] | -1%[46.1 µM] | 1% | 1%
Cc1cc(C)cc(OCc2nnc(SCC(=O)N3CCN(c4ccccc4)CC3)o2)c1 | 3% | 0.5% | ? | ? | -4% | -14%[46.1 µM] | -11% | 4%
CC(C)C(=O)OC1=CN(Cc2ccccc2)S(=O)(=O)c2ccccc21 | / | -7.0% | 9% | -14% | -1%[46.1 µM] | 1%[46.1 µM] | / | /
O=C(N1CCOCC1)N1c2ccccc2CC(N2CCOCC2)c2ccccc21 (stereo not given) | 0% | 4.9% | -30% | 13% | -5% | -4% | -10% | 8%
Cn1c2ccccc2c2nnc(SCC(=O)Nc3cccc(O)c3)nc21 | 5% | / | 15% | / | / | / | 2% | 6%
O=C1N=C(N2CCOCC2)S/C1=C\c1cccnc1 | 6% | / | -10% | / | 8% | ? | 3% | -1%
CC(C)c1ccccc1N=C1SCCCN1C(=O)c1cccc(N2C(=O)CCC2=O)c1 | / | / | -22% | / | -17% | ? | -3% | -1%
Cc1ccnc(NC(=O)Cc2ccc(-c3ccccc3)cc2)c1 | 9% | / | 54%[activator] | / | / | / | -12% | -5%
Cc1cc(NCCN2CCOCC2)n2ncc(-c3ccccc3)c2n1 | -12% | -6.1% | 0% | -6% | ? | ? | 22% | 2%
O=C(c1ccc(Cl)c(Cl)c1)c1cc(-c2ccccn2)c(N2CCOCC2)s1 | -16% | -12% | -23% | ? | -10% | ? | -9% | -15%
Cc1cc(C)n(CC(O)Cn2c3ccc(Br)cc3c3cc(Br)ccc32)c(=O)n1 (stereo not given) | ? | -6.1% | / | ? | -9% | ? | 7% | 5%
COc1ccc(CCNC(=O)CSCc2nc(-c3cccc(C)c3)oc2C)cc1OC | / | 0.5% | -5% | ? | -26%[46.1 µM] | -24%[46.1 µM] | / | /
COc1ccccc1-c1nnc(SCC(=O)NC2CCS(=O)(=O)C2)n1CCc1ccccc1 (stereo not given) | -30% | -1.6% | 6% | 20% | -12% | 5% | 7% | -2%
Cc1ccccc1CSc1nnc(-c2cnccn2)n1C | -4% | / | 40%[activator] | / | 13% | ? | -1% | -1%
CCn1nnnc1NCc1ccc(N2CCCC2)cc1 | ? | 0.3% | -3% | -10% | -10% | ? | 7% | -2%
COc1cccc(NC(=S)NNC(=O)Cn2nc(C(F)F)cc2C(F)F)c1 | 25% | 0.7% | 15% | -16% | 3% | 5% | 5% | 11%
CCOc1ccc2c(c1)c(=O)c(S(=O)(=O)c1ccc(CC)cc1)cn2CC | / | -3.3% | 50%[activator] | 5% | -9%[46.1 µM] | ? | / | /
COc1ccc(C(=O)Nc2cccc(C(=O)OCc3cc(=O)n4nc(C5CC5)sc4n3)c2)cc1 | / | 2.2% | 26% | -4% | 5%[46.1 µM] | / | / | /
C=CCc1cccc(Cl)c1OCCON1C(=O)CCC1=O | 1% | -1.4% | -1% | 12% | 8% | 18% | -7% | -6%
CCOC(=O)c1ccccc1NC(=O)CCNC(=O)Cn1cnc2ccccc2c1=O | 0% | 0.4% | -18% | 3% | 22% | -2% | -4% | 1%
O=C(CS(=O)Cc1ccccc1Cl)Nc1ccccc1Cl (stereo not given) | -5% | / | 55%[activator] | / | -3% | 0%[46.1 µM] | 0% | 0%
CCC(C)NC(=O)C(Sc1ccccc1)c1ccccc1 (stereo not given) | -2% | / | 0% | / | 1% | ? | -17% | -1%
Cc1cc(=O)[nH]c2nnc(SCc3cccc(C(F)(F)F)c3)n12 | / | -2.0% | -12% | -4% | -6%[46.1 µM] | / | / | /
O=C(O)c1ccc(Cl)c(S(=O)(=O)NCc2cccnc2)c1 | / | / | 8% | / | 7%[46.1 µM] | -12%[46.1 µM] | -17% | 6%
N#Cc1nc(-c2ccco2)oc1NCc1ccccc1Cl | -56% | / | 18% | / | 10% | 1% | 5% | -17%
CC(C)(C)C1=C[C@@H](CO)C[C@@H](CO)C1 | -7% | 6.7% | 0% | 2% | 0% | 23% | 21% | 0%
COc1ccc(CCNC(=O)c2c(C)oc3ncn(CC(C)C)c(=O)c23)cc1OC | / | -0.4% | -16% | -5% | 16%[46.1 µM] | / | / | /
O=C(CC1C(=O)CCCC1=O)c1ccccc1 | / | / | ? | / | -17% | ? | -13% | 1%
O=C(CN1CCN(c2ccc([N+](=O)[O-])cc2Cl)CC1)N1CCOCC1 | 0% | / | -28% | / | 21%[46.1 µM] | -15%[46.1 µM] | -7% | 0%
O=C1CSC(c2ccc(Cl)cc2Cl)N1c1ccccn1 (stereo not given) | 0% | -2.1% | -24% | -4% | -8% | -15% | 29% | -25%
CCc1ccc(C2CC(=O)NC(NC(=O)c3ccc(C(C)(C)C)cc3)=N2)cc1 (stereo not given) | / | -1.4% | 41%[activator] | -2% | -2%[46.1 µM] | 1%[46.1 µM] | / | /
CN1CCN(c2nc3c(c(=O)n(C)c(=O)n3C)n2Cc2cccc3ccccc23)CC1 | ? | 4.2% | -10% | 4% | -10% | 0%&0%&0% | 7% | 1%
Cc1cc(NC(=O)c2cc(-c3ccc(Br)cc3)on2)nn1Cc1ccc(Cl)cc1 | / | -1.7% | ? | 2% | 2%[46.1 µM] | 5%[46.1 µM] | / | /
COC(=O)[C@@H](Cc1c[nH]c2ccccc12)NC(=O)c1ccc2c(c1)OCO2 | -9% | / | -2% | / | / | / | -12% | -2%
COc1ccc(/C=N/NC(=O)c2ccncc2)cc1CN1CCOCC1 | -30% | / | -13% | / | -22% | -22%[14.2 µM] | -17% | -1%
Cc1cccc(NC(=O)CN2C(=S)NC(C)(C)CC2C)c1 (stereo not given) | -5% | 0.9% | -13% | 6% | ? | 7% | 9% | -7%
CCOc1cccc(/C=C/c2ccc3cccc(O)c3n2)c1O | -6% | / | -1% | / | ? | ? | ? | -4%
CCCN(C(=O)CSCC(=O)Nc1ccc(OC)cc1)c1c(N)n(Cc2ccccc2)c(=O)[nH]c1=O | / | / | -12% | / | 12%[46.1 µM] | 20% | -10% | 2%
CCC1=Nc2ccc(Br)cc2C(c2ccccc2)N1CC(=O)OC (stereo not given) | -3% | -5.4% | ? | -12% | -23% | ? | 2% | 5%
CCCN1CCc2[nH]c(=S)[nH]c(=O)c2C1 | 8% | 3.8% | -10% | -7% | 1% | -15% | -26% | -16%
CCOC(=O)c1ccc(OCCOc2ccccc2C)cc1 | 7% | / | 0% | / | ? | -8% | 3% | 2%
CC1CCc2c(sc(NC(=O)c3ccccc3)c2C(=O)Nc2ccccc2)C1 (stereo not given) | / | -0.7% | -14% | -6% | -3%[46.1 µM] | / | / | /
CN(C(=O)C1CCCCC1)C1CCS(=O)(=O)C1 (stereo not given) | / | / | -11% | / | 9% | 7%[46.1 µM] | -3% | 1%
Cc1nn(C)c(Nc2ccc(Br)cc2)c1Br | / | / | ? | / | / | -22%[46.1 µM] | 38% | -1%
CCCCCCOc1ccc(C(CC(=O)NC)C(=O)O)cc1 (stereo not given) | 6% | / | 0% | / | -2%[46.1 µM] | 9%[46.1 µM] | -6% | 0%
CCN(c1cccc2ccccc12)S(=O)(=O)c1ccc(Cl)nc1 | 0% | / | -6% | / | 0% | ? | 3% | 0%
CCC(C)NC(=O)c1cccc(OCc2c(C)noc2C)c1 (stereo not given) | -9% | / | 2% | / | -15% | 8%[46.1 µM] | 18% | 1%
Cc1ccc(N2C(=O)N(CC(=O)Nc3ccc(C)cc3C)C(=O)C2C)cc1 (stereo not given) | / | / | 15% | / | -27%[46.1 µM] | ? | 8% | 0%
CC(=O)C1=C(C)N(CC2CC2)C(=O)N[C@H]1c1cccs1 | 3% | 0.4%&0.6% | -7% | -9%&-6% | 0% | 27% | 1% | 16%
CCOP(=O)(OCC)/C(C#N)=C/c1ccc(Br)cc1 | -3% | / | 25% | / | 13%[46.1 µM] | ? | 0% | 1%
CCOc1ccccc1CNC(=O)Cn1c(=O)c2cccn2c2ccc(F)cc21 | / | -1.8% | -19% | 6% | 0%[46.1 µM] | / | / | /
O=C(CC(SCCO)c1ccc([N+](=O)[O-])cc1)c1ccco1 (stereo not given) | -17% | / | -16% | / | / | / | ? | 11%

Screening results: PubChem BioAssay, National Center for Advancing Translational Sciences (NCATS)
